Cruzain inh Det – qHTS Assay for Promiscuous and Specific Inhibitors of Cruzain (with detergent) | purified cruzain, Z-FR-AMC fluorescence, 0.01% Triton | AID 1478, 2009 | 0.43% of 200,000 active | Potency, µM, inactives show max response, negative = inhibition, most hits filed as inhibitors;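 also: plate controls were neutral wells for no effect and buffer without enzyme for full effect; nearly all actives have a fitted effect of over 40% in size; top concentration of the series not given in the record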
Target sequence (P25779 123-467 limits assumed): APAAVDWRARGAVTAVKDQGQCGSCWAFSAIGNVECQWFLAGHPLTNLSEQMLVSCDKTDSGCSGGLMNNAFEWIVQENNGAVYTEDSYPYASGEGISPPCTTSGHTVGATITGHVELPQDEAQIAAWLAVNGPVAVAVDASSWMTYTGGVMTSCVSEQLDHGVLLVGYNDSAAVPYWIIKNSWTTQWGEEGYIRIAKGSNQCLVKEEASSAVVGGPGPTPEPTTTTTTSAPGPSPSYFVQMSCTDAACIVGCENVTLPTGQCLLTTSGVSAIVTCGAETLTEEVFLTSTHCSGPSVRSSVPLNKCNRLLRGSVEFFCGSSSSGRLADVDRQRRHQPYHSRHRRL
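Read-out: AMC fluorescence (360 nm excitation, 450 nm emission), four reads over 2 min, first-to-third difference used. Conditions: cruzain 1.5 nM, Z-FR-AMC 2 uM, pH 5.5 acetate, 5 mM DTT, 0.01% Triton X-100.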
MARV entry inh – qHTS for inhibitors of binding or entry into cells for Marburg Virus; AID 540276, 2011; 1.8% of 300,000 active; Potency, µM (series often up to 37.8 µM), for the others: at the highest dose activity change, negative = inhibition, actives largely listed as inhibitors; Marburg virus pseudotyped entry inhibition, cell reporter; control for the full effect not named in the record; about a third of the inactives were read at about 46 µM; active = well fitted inhibition curve with a large enough effect; inconclusive = small, poorly fitted or top-dose-only effect, or effect the other way; inactive = flat fitted curve, though single readings scatter; tested in HEK293 cells; about a fifth of its hits are not listed in these tables; also: % is scaled to controls: 0 for no effect and ±100 for the full control effect; luciferase read-out
Lassa entry inh – qHTS for Inhibitors of binding or entry into cells for Lassa Virus | Lassa virus pseudotype entry inhibition, cell reporter; control for the full effect not named in the record | Potency, µM (series often up to 37.9 µM), for the others: top-dose activity change, negative = inhibition, most hits filed as inhibitors | 1.2% of 300,000 active | AID 540256, 2011; active means well fitted inhibition curve with a large enough effect; inconclusive means small, poorly fitted or top-dose-only effect, or effect the other way; inactive means flat fitted curve, though single readings scatter; tested in HEK293 cells; also: % is scaled to controls: 0 for no effect and ±100 for the full control effect; nearly all actives have a fitted effect of over 50% in size; luciferase read-out
SARS PLP yeast – qHTS of Yeast-based Assay for SARS-CoV PLP. S. cerevisiae expressing SARS-CoV PLpro, growth rescue; control for the full effect not named in the record. Potency, µM (doses to about 32.9 µM), for the others: at the highest dose activity, positive = growth rescue. 0.19% of 330,000 active. AID 485353, 2010; active means well fitted rising curve with a large enough effect; inconclusive means small, poorly fitted or top-dose-only effect; inactive means no such curve, though single readings can be large or run the other way; also: 0% is about no effect; nearly all actives have a fitted effect of over 55% in size; growth read by luminescence after 48 h
StopGo reporter – High Throughput Screening for Foot and Mouth Disease Virus Antivirals | human cells with a luciferase reporter of 2A StopGo recoding; control for the full effect not named in the record | Potency, µM (titrated, usually from 57.9 µM), for inactives: top-dose signal change, negative = less light | 1.2% of 410,000 active; active = well fitted falling curve with a large enough effect; inconclusive = small, poorly fitted or top-dose-only effect; inactive = no such curve, though single readings can be large or run the other way; tested in HEK293T cells; also: % is scaled to controls: 0 for no effect and ±100 for the full control effect; nearly all actives have a fitted effect of over 45% in size; luciferase light after 4 h
Cruzain noTriton – qHTS Assay for Promiscuous and Specific Inhibitors of Cruzain (without detergent); AID 1476, 2009; purified cruzain, Z-FR-AMC fluorescence, no detergent; Cruzipain (Trypanosoma cruzi), P25779; 2.3% of 200,000 active; Potency, µM, without a hit: max response, negative = inhibition, actives largely listed as inhibitors;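 also: plate controls were enzyme without inhibitor for no effect and buffer without enzyme for full effect; nearly all actives have a fitted effect of over 40% in size; top concentration of the series not given in the record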
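Detergent-free condition (0.00005% Triton X-100) in acetate buffer pH 5.5 with DTT. 1.5 nM enzyme and compound were pre-mixed 15 min, then 2 uM Z-FR-AMC substrate added; reaction progress from fluorescence change between first and third reads (60 s).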
NS1 function inh – qHTS Assay for Inhibitors of Influenza NS1 Protein Function; AID 2326, 2010; S. cerevisiae slowed by influenza A NS1, growth recovery by OD600; 0.4% of 270,000 active; Potency, µM (titrated, usually from 46.1 µM), inactives show at the highest dose activity, positive = more growth; active means well fitted rising curve with a large enough effect; inconclusive means small, poorly fitted or top-dose-only effect; inactive means no such curve, though single readings can be large or run the other way; also: nearly all actives have a fitted effect of over 50% in size
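Compounds were scored for reversing the slow growth caused by influenza A NS1 in S. cerevisiae, measured by optical density at 600 nm. Assay medium contained 2% galactose at pH 6.0; NS1-free yeast of the same strain were the positive control.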
RE007 growth inh – qHTS Assay for Inhibitors of the HIV-1 protein Vpr. S. pombe RE007 Vpr strain, BacTiter-Glo ATP luminescence, 24 h; control for the full effect not named in the record. Potency, µM (titrated, usually from 92.2 µM), inactives show top-dose activity change, negative = less growth. 0.21% of 360,000 active; active = well fitted falling curve with a large enough effect; inconclusive = small, poorly fitted or top-dose-only effect; inactive = no such curve, though single readings can be large or run the other way;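 also: % is scaled to controls: 0 for no effect and ±100 for the full control effect; nearly all actives have a fitted effect of over 50% in size; the assay follows cell death caused by Vpr and the record does not say whether a fall means rescue or toxicity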
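Fission yeast RE007 carrying one integrated HIV-1 vpr copy, seeded at OD 0.01 in PMG+AL medium with 23 nL pinned compound. Grown 24 h at 30 degrees; viability read by BacTiter-Glo luminescence after 5 min.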
Starred values were filed as active, the others as inactive; u = inconclusive; x = not tested or not shown; [ ] = another dose, or the depositor's remark. Unless noted, calls follow the shape of the dose curve; as a rule, active = well fitted curve in the direction sought with a large enough effect; inconclusive = small, poorly fitted or top-dose-only effect, or another doubt; inactive = no such curve, though single readings can be large; an effect the other way counts as inactive or inconclusive. Potency is read from the fitted curve at half-maximal effect.

SMILES	Cruzain inh Det	MARV entry inh	Lassa entry inh	SARS PLP yeast	StopGo reporter	Cruzain noTriton	NS1 function inh	RE007 growth inh
CCOP(=O)(OCC)C(NC(=O)Nc1cccc(Cl)c1)c1ccccc1 (stereo unspecified)	-4.4%	u	-24%	7%	-8%	u	-5%	-5%
COc1ccc(NC(=O)c2[nH]c(C)c(C(C)=O)c2C)cc1	x	u	9%	-2%	116%[activator]	x	-1%	-14%
NC(=NC(=O)c1ccccc1)N1CCOCC1	3.5%	-5%	13%	-2%	x	-2%	7%	-6%
CC(=O)N1CCC(=NNc2nc3ccccc3[nH]2)CC1	x	u	0%[46.1 µM]	-6%	14%	x	x	6%
Cc1nn(C(C)C(=O)O)c2ccccc12 (stereo unspecified)	4.6%	-1%	18%	8%	x	1%	2%	3%
COc1ccc(-c2cc(C(=O)NNC(=O)c3csc(N4CCOCC4)n3)c3ccccc3n2)cc1	x	u	0%[46.1 µM]	-1%	-17%	x	x	11%
Cc1cc(CN(C)C(=O)c2cc(COc3ccc(C)c(C)c3)on2)on1	x	-1%	-1%	-4%	7%	x	-29%	-4%
Cc1ccc(C2Nc3ccccc3-n3c(-c4ccccc4)c4c(=O)n(C)c(=O)n(C)c4c32)o1 (stereo unspecified)	-5.1%	-8%[46.1 µM]	0%[46.1 µM]	x	u	-5%	x	x
Cc1[nH]c2ccccc2c1C1(O)C(=O)N(Cc2ccccc2)c2ccc(Cl)cc21 (stereo unspecified)	-11%	u	u	x	u	u	x	x
CC(NC(=O)c1ccncc1)C(c1cccs1)N1CCOCC1 (stereo unspecified)	-2.3%	16%	20%	21%	x	1%	1%	3%
O=c1[nH]c(C2CCN(S(=O)(=O)c3ccccc3F)CC2)nc2c1nnn2Cc1ccc2c(c1)OCCO2	x	x	x	0%	-26%	x	13%	2%
CCOc1ccccc1NC1c2ccccc2C(=O)N1c1cccnc1 (stereo unspecified)	1.3%	-30%	13%	4%	12%	u	-16%	3%
COC(=O)C(CC(=O)c1ccc(Br)cc1)n1cccn1 (stereo unspecified)	x	2%	-13%	0%	-3%	x	8%	u
CCOc1ccc(S(=O)(=O)NC(C)C(=O)NCc2cccnc2)cc1 (stereo unspecified)	x	12%	14%	-1%	6%	x	6%	-14%
COC(=O)C1(CCSC)NC(c2ccc(OC)cc2OC)C2C(=O)N(c3cccc(C(C)=O)c3)C(=O)C21 (stereo unspecified)	x	x	x	u	-21%	x	2%	5%
N#Cc1c(C(F)(F)F)cc(=O)n2c1[nH]c1ccccc12	x	u	u	-21%	-6%	x	-74%	-10%
CC1=NN(c2ccccc2)C(=O)C1/C=C1\C(=O)NC(=O)N(c2cc(C)cc(C)c2)C1=O (stereo unspecified)	-8.0%	19%	7%	13%	u	7%	13%	0%
COc1ccc2oc(=O)c(C(=O)NCCc3c(C)[nH]c4c(C)cccc34)cc2c1	-14%	u	u	x	0%	12%	x	x
Cc1nnc2sc(SCC(=O)Nc3cccc(Cl)c3)nn2c1=O	x	10%[46.1 µM]	-12%[46.1 µM]	-2%	-7%	x	x	3%
CCn1c(C)nc([N+](=O)[O-])c1Sc1ccc(F)cc1	-3.9%	-7%	-9%	3%	u	-1%	13%	-12%
Cc1nnc(SCC(=O)Nc2ccccc2F)n1-c1ccc(F)cc1	x	x	x	-1%	5%	x	-3%	4%
Cc1cc(C(=O)Nc2cccc(C(=O)O)c2)oc1C	-0.5%	u	3.5µM*	-4%	u	-1%	u	-4%
CCC(C)NC(=O)Cn1c(=O)n(-c2ccc(Cl)c(Cl)c2)c(=O)c2c(C)c(C(=O)N(CC)CC)sc21 (stereo unspecified)	-0.3%	x	-1%[46.1 µM]	x	5%	-4%	x	x
COc1cccc(C2c3[nH]c4ccccc4c3C[C@H]3C(=O)N(C4CCN(Cc5ccccc5)CC4)CC(=O)N23)c1 (stereo partly specified)	x	x	x	1%	0%	x	2%	17%
COc1ccc(C(C)C)cc1S(=O)(=O)NCc1ccccn1	3.8%	-23%	-4%	-2%	130%[activator]	-1%	-2%	13%
CC1(c2ccccc2)CC(c2ccccc2)=Nc2ccccc2N1 (stereo unspecified)	x	-9%[14.2 µM]	29%	4%	9%	x	-2%	-8%
COc1ccc(C(=O)c2cnc(C(C)C)n2C)cc1	0.7%	2%	18%	1%	x	-3%	2%	5%
O=c1oc2c3c(ccc2c2ccccc12)OCN(Cc1cccc(Cl)c1)C3	-2.1%	2%[46.1 µM]	0%[46.1 µM]	x	-7%	-6%	x	x
Cc1ccc2[nH]c3c(=O)n(CC(=O)Nc4ccc(Br)cc4C)ncc3c2c1	-0.5%	x	3%[46.1 µM]	x	-4%	-10%	x	x
Clc1cccc(N/N=C/c2ccncc2)c1	-6.7%	u	10%	-66%	24%	4%	-23%	42%
O=[N+]([O-])c1ccc2oc(C(O)c3cccc(Cl)c3)cc2c1 (stereo unspecified)	x	u	u	-7%	-18%	x	-68%	-28%
CSc1ccc(C2c3c(oc4cc(C)cc(C)c4c3=O)C(=O)N2CCO)cc1 (stereo unspecified)	-7.8%	u	23%[46.1 µM]	x	3%	u	x	x
CCOc1ccc(N2CC(NC(=O)c3ccc(S(=O)(=O)N4CCOCC4)cc3)CC2=O)cc1 (stereo unspecified)	-2.1%	x	5%[46.1 µM]	x	-17%	14%	x	x
CCOc1ccc(/C=N/NC(=S)NC2CC3CCC2C3)cc1 (stereo unspecified)	x	-24%	u	0%	-25%	x	-1%	-16%
CCOC(=O)N1CCC(NC(=O)CN2C(=O)CSc3nc(C)cc(C)c32)CC1	0.2%	x	x	8%	x	1%	u	x
CCCCN(CC)Cc1c(O)ccc2c(-c3ccccc3)cc(=O)oc12	x	x	x	-2%	-19%	x	-4%	-2%
Cc1cccc(C)c1-n1ncc(C(=O)O)c1C1CCN(C(=O)OC(C)(C)C)CC1	-2.0%	3%[46.1 µM]	29%[46.1 µM]	x	-13%	29%	x	x
O=C(NNC(=O)c1ccccc1F)C1=NN(c2ccccc2)C(=O)CC1	x	x	x	6%	2%	x	-19%	9%
Cc1onc(-c2ccccc2Cl)c1C(=O)NCc1nc(-c2ccccc2)no1	-4.8%	-9%[46.1 µM]	-15%	-13%	u	-6%	-20%	12%
CC1=CC(C)(C)NC(=S)N1c1ccc(C)cc1	-2.5%	-1%	-4%	u	-19%	1%	-6%	9%

Ordered by length of the SMILES (lowest first): some entries from above.
SMILES	Cruzain inh Det	MARV entry inh	Lassa entry inh	SARS PLP yeast	StopGo reporter	Cruzain noTriton	NS1 function inh	RE007 growth inh
CC1=CC(C)(C)NC(=S)N1c1ccc(C)cc1	-2.5%	-1%	-4%	u	-19%	1%	-6%	9%
CCOc1ccc(/C=N/NC(=S)NC2CC3CCC2C3)cc1 (stereo unspecified)	x	-24%	u	0%	-25%	x	-1%	-16%
O=c1oc2c3c(ccc2c2ccccc12)OCN(Cc1cccc(Cl)c1)C3	-2.1%	2%[46.1 µM]	0%[46.1 µM]	x	-7%	-6%	x	x

The listing picks up; the 5 compounds before the break are reprinted first.
SMILES	Cruzain inh Det	MARV entry inh	Lassa entry inh	SARS PLP yeast	StopGo reporter	Cruzain noTriton	NS1 function inh	RE007 growth inh
CCCCN(CC)Cc1c(O)ccc2c(-c3ccccc3)cc(=O)oc12	x	x	x	-2%	-19%	x	-4%	-2%
Cc1cccc(C)c1-n1ncc(C(=O)O)c1C1CCN(C(=O)OC(C)(C)C)CC1	-2.0%	3%[46.1 µM]	29%[46.1 µM]	x	-13%	29%	x	x
O=C(NNC(=O)c1ccccc1F)C1=NN(c2ccccc2)C(=O)CC1	x	x	x	6%	2%	x	-19%	9%
Cc1onc(-c2ccccc2Cl)c1C(=O)NCc1nc(-c2ccccc2)no1	-4.8%	-9%[46.1 µM]	-15%	-13%	u	-6%	-20%	12%
CC1=CC(C)(C)NC(=S)N1c1ccc(C)cc1	-2.5%	-1%	-4%	u	-19%	1%	-6%	9%
COc1cccc(N(C(=O)c2ccco2)C(C(=O)NC2CCCC2)c2ccc(N3CCOCC3)cc2)c1 (stereo unspecified)	x	u	u	2%	-8%	x	3%	-1%
[N-]=[N+]=NCCN1CCC(O)CCC1=O (stereo unspecified)	x	x	x	6%	-8%	x	6%	5%
COc1ccc(CSc2nc(O)cc(=O)n2CC(C)C)cc1F	x	-24%[46.1 µM]	3%	1%	-2%	x	3.5µM*	-5%
CCOc1ccc(NC(=O)COC(=O)CCN2C(=O)C3CC=CCC3C2=O)cc1OCC (stereo unspecified)	x	-7%	4%	-8%	-7%	x	x	-24%
O=C(NC1CC1)c1cn(Cc2ccccc2)nc1-c1ccccc1	x	-10%[46.1 µM]	0%	-3%	23%	x	x	-7%
CCOc1ccc(C(=O)C(C)=O)c(OCC)c1	x	4%[46.1 µM]	u	-2%	-6%	x	-8%	3%
Fc1ccc(CNCc2cccc(Br)c2)cc1	0.2%	-9%	-5%	0%	1%	0%	-3%	-10%
Cc1ccc(N(C(=O)CNC(=O)c2ccco2)C(C(=O)NCC2CCCO2)c2ccccc2)cc1C (stereo unspecified)	x	-26%[46.1 µM]	x	2%	-15%	x	4%	-8%
CN(C)C(=O)N1CCC(C(=O)N2CCCC(C(=O)c3ccc(C(C)(C)C)cc3)C2)CC1 (stereo unspecified)	x	x	x	-2%	-6%	x	1%	2%
COc1ccccc1NCCC#N	0.0%	14%[46.1 µM]	u	12%	13%	-1%	3%	11%
Cc1ccc(NC(=S)N2CCC(O)CC2)c(C)c1	x	x	x	0%	6%	x	1%	10%
COC(=O)c1c(NC(=O)/C=C/c2ccc3c(c2)OCO3)sc(C)c1C	-6.2%	0%	13%	0%	-8%	-20%	3%	6%
